From PubChem
VACV Venus inh: qHTS for Stage-Specific Inhibitors of Vaccinia Orthopoxvirus: Venus Reporter Primary qHTS; Vaccinia virus Venus reporter expression, fluorescence; hit rate 0.46% among 330,000; Potency, µM (doses to about 36.5 µM), for inactives: at the highest dose activity change, negative = inhibition, actives largely listed as inhibitors; AID 720580, 2013; active means well fitted inhibition curve with a large enough effect; inconclusive means small, poorly fitted or top-dose-only effect; inactive means no such curve, though single readings can be large or run the other way; tested in A549 cells; further: nearly all actives have a fitted effect of over 30% in size; inactives centre near -10
Vaccinia mCherry: qHTS for Stage-Specific Inhibitors of Vaccinia Orthopoxvirus: mCherry Reporter Primary qHTS; AID 720579, 2013; hit rate 0.63% among 310,000; Vaccinia virus mCherry reporter infection, fluorescence; about a quarter of the inactives have no number; Potency, µM (titrated, usually from 36.5 µM), without a hit: at the highest dose activity change, negative = inhibition, most hits filed as inhibitors; active = well fitted inhibition curve with a large enough effect; inconclusive = small, poorly fitted or top-dose-only effect; inactive = no such curve, though single readings can be large or run the other way; tested in A549 cells; further: nearly all actives have a fitted effect of over 35% in size; inactives centre near -10
The depositor's hits bear a star; i = inactive; ? = inconclusive; / = not tested or not shown; & = joins results of further samples; [ ] = remark or other dose. On the % scale 0 is the no-effect control and ±100 the full control effect; potency means the concentration at half of the fitted maximal effect. This is a random part of the collection; overall some 0.82% were active at least once.

SMILES	VACV Venus inh	Vaccinia mCherry
O=[N+]([O-])c1cc(C(F)(F)F)ccc1N1CCCNCC1	0%	0%
CN1CCC(=NNC(=O)CN(c2cccc([N+](=O)[O-])c2)S(=O)(=O)c2ccccc2)CC1	-16%	-16%
Cc1cc(OC(=O)c2cc(Cl)ccc2Cl)c([N+](=O)[O-])c(=O)[nH]1	0%	-16%
CN(C(=O)c1ccc(Br)cc1)C1CCS(=O)(=O)C1 (stereo not given)	-4%	i
N/C(=N\c1nc2c(c(=O)[nH]1)CCCC2)Nc1ccc(Oc2ccccc2)cc1	-11%	i
CC(C)n1nnnc1CN1CCN(C)CC1	-11%	/
CCCC#Cc1ccc2c(c1)O[C@@H](CN(C)Cc1ccc3c(c1)OCO3)[C@H](C)CN([C@@H](C)CO)S2(=O)=O	-19%	-10%
CN(c1ncc(C(F)(F)F)cc1Cl)N1C(=O)c2cccc(N)c2C1=O	-13%	-5%
C=CCOc1ccc(/C=C/C(=O)OCC(=O)N(C)C2CCS(=O)(=O)C2)cc1 (stereo not given)	-24%	-13%
COc1ccc(NC(=O)C[C@H]2C(=O)N(c3ccc(OC)cc3)C[C@@H]2C)cc1	-15%	i
CC(NC(=O)CNC(=O)c1ccco1)c1ccccc1 (stereo not given)	-11%	-1%
CCOc1ccc(CNC(=O)Cn2ncc3c(=O)oc4ccc(C)cc4c32)cc1	-27%	-22%
CCOC(=O)c1cn(CC)c2c(ccc3ccccc32)c1=O	-8%	-15%
S=c1[nH]cnc2scc(-c3ccc(Cl)cc3)c12	-23%	-17%
OC[C@@H]1CN(Cc2ccco2)C[C@H](n2cnc3c(Nc4ccccc4)ncnc32)O1	6%	0%
COc1ccc(C)cc1NC(=O)CN1CCN(S(=O)(=O)c2ccc3ccccc3c2)CC1	-17%	-8%
CCN(C(=O)CN1C(=O)CN(C)C1=O)c1cccc2ccccc12	14%	-25%
O=C(Cc1ccc(S(=O)(=O)N2CCOCC2)s1)Nc1ccccc1N1CCCC1	-8%	-15%
Cc1ccc(N/C=C(\C2OC(=O)c3ccccc32)[N+](=O)[O-])c(C)c1 (stereo not given)	-10%	4%
CC1(C)Cc2nc(N3CCCC3)c(C#N)cc2CO1	-16%	-18%
CC1=C(C(=O)N(C(C)C)C(C)C)CC(CC(=O)NC2CC2)C(=O)N1Cc1ccc(F)cc1 (stereo not given)	3%	14%
Cc1ncc(CN2CCCC(CCC(=O)NCc3ccccc3F)C2)s1 (stereo not given)	-16%	?
CCn1c(SCC(=O)NCc2ccccc2)nc2ccccc2c1=O	-8%	i
CCS(=O)(=O)Nc1ccc(-c2nnc(SCC(=O)c3ccc(NC(C)=O)c(OC)c3)o2)cc1	-1%	i
CCNC(=S)Nc1ccc2cn[nH]c2c1	-10%	i
COc1ccc(C=O)cc1	-7%	-18%
CC1CC(C)CN(C(=O)c2ccc3nc[nH]c3c2)C1 (stereo not given)	-11%	i
Cc1cc(OCC(O)CN2CCN(c3ccccn3)CC2)cc(C)c1Cl (stereo not given)	-17%	-5%
CCOC(=O)c1sc(NC(=O)Nc2cccc(Cl)c2)cc1C	?	?
CCN(CC)CCNC(=O)CSc1c2c(nc3cc(Cl)ccc13)CCCC2	-16%	-2%
COC(=O)c1ccc(Cl)cc1NC(=O)NC(C)c1c(-n2cccc2)sc(C)c1C (stereo not given)	-9%	-1%
CCOC(=O)N1CCC(N(CCN(C)C)C(=S)Nc2cccc(SC)c2)CC1	-12%	-27%
CSC1=NC(C)(C)CC2(C)Nc3ccccc3N12 (stereo not given)	?	?
Cc1nc2cc(F)ccc2n1C1CCN(C(=O)c2c(F)cccc2F)CC1	-25%	-3%
Clc1ccc(-c2nc(N3CCOCC3)nc3ccccc23)cc1	-14%	-1%
Cn1c(=O)c2c(nc(CN3CCCCC3)n2Cc2c(F)cccc2Cl)n(C)c1=O	1%	i
CN(/C(=N/S(=O)(=O)c1cccs1)c1ccccc1)c1ccc(O)cc1	-4%	0%
Cc1cc(C)nc(SCc2ccc(Br)cc2)n1	-2%	-11%
CCCOC(=O)c1ccc(Nc2nc(C)cc(=O)[nH]2)cc1	?	/
NC(=O)c1ccc(CN2CCC(Cc3ccccc3)CC2)cc1	-2%	-8%
O=S(=O)(Nc1ccc(N2CCOCC2)cc1)c1cc(Cl)ccc1Cl	-10%	-11%
c1ccc(Nc2c(-c3ccco3)nc3ccccn23)cc1	-14%	-13%
CN1C(=O)/C(=C\C=C2/CCCN2C)N(C)C1=S	0%	-21%
CCOc1ccc(NC(=O)c2c(NCc3ccc(C)o3)sc3c2CCC(C)C3)cc1 (stereo not given)	-8%	-4%
CCOc1ccc(NC(=O)c2cc3n(n2)C(C(F)(F)F)CC(c2ccco2)N3)cc1 (stereo not given)	-27%	/
CN1CCN(c2ccc(CNC(=O)C3Cc4c(-c5ccccc5)ccnc4O3)cc2)CC1 (stereo not given)	-18%	15%
FC(F)(F)c1cccc(NC(=S)NNC(=S)NCc2ccccc2)c1	-27%	-13%
CC12CN3CCN(CC(C3)/C1=N\NC(=O)c1ccccc1N)C2	-8%	-13%
COc1ccc(-c2cn[nH]c2-c2ccc(OCc3ccc([N+](=O)[O-])cc3)cc2O)cc1	-24%	-14%
O=C(Cn1c2ccc(F)cc2c2nc3n(c(=O)c21)CCS3)Nc1ccccc1C(F)(F)F	-6%	-17%
COc1ccc(C(=O)N2CCN(c3nc4ccccc4o3)CC2)cc1OC	-14%	i
COCCn1c(C)cc(/C=N/NC(=O)c2cc3ccccc3cc2O)c1C	-5%	i
CC(C)(C)c1ccc(OCc2ccc(C(=O)N/N=C/c3ccc([N+](=O)[O-])cc3)o2)cc1	-15%	-15%
CSCC(=O)N1CCc2ccc(NC(=O)c3ccccc3Cl)cc2C1	-13%	-13%
O=C(Nc1ccccc1C(=O)NCc1cccnc1)c1ccccc1Cl	-6%	-12%
CCc1ccc(NC(=O)C(C)OC(=O)CCN2C(=O)C3CC=CCC3C2=O)cc1 (stereo not given)	-4%	-8%
Cc1noc(/C=C/N(C)C)c1S(=O)(=O)N(C)CC(=O)N1CCc2ccccc21	6%	/
C[C@@H]1CN([C@@H](C)CO)S(=O)(=O)c2ccc(Br)cc2O[C@H]1CN(C)C(=O)c1ccccc1F	-15%	i
COc1ccc(N2CCN(C(=O)c3ccc4c(=O)n(CCc5ccc(OC)c(OC)c5)c(=O)[nH]c4c3)CC2)cc1	-14%&-25%	-22%&-23%
O=C(Cc1n[nH]c(=O)c2ccccc12)OCC(=O)c1ccccc1Cl	-5%	-5%

More compounds
SMILES	VACV Venus inh	Vaccinia mCherry
COc1cccc2c(=O)cn[nH]c12	-3%	-15%
CC(=O)N1CCN(CC(=O)Nc2ccc(C#N)c(Cl)c2)CC1	-5%	i
Cc1cc(C)cc(NC(=O)C(Sc2ncnc3ccccc23)c2ccccc2)c1 (stereo not given)	-5%	-16%
COc1cc(/C=N/NC2=NCCCCC2)ccc1O	0%	i
Cc1ccc(Nc2c(-c3ccc(C)o3)nc3cccc(C)n23)cc1	-15%&-10%	-16%
CCOc1ccccc1NC(=S)NC1CC2CCC1C2 (stereo not given)	-16%	-2%
COc1ccc(CN(Cc2ccco2)C(=O)COc2ccc(Cl)cc2C)cc1	1%	1%
O=C(Nc1ccc(N2CCOCC2)c(Cl)c1)c1cccnc1Cl	-8%	i
CCc1ccccc1NC(=O)Cn1cc(C(=O)c2ccc(Cl)cc2)c(=O)c2ccc(C)nc21	-17%	-15%
CCOc1cc(/C=N/NC(=O)Cc2ccc(C(F)(F)F)cc2[N+](=O)[O-])ccc1O	-10%	i
COc1ccc(CN2CCNC(=O)C2CC(=O)N2CCCCO2)c(OC)c1 (stereo not given)	11%	-1%
C=C1c2cc3c(cc2NC(=S)N1Cc1ccccc1)OCO3	-15%	?
O=C(c1ccccc1)N1CCN(C(=S)NCc2ccco2)CC1	-2%	i
CCOc1ccc2oc(=O)cc(CN3CCN(C(=O)c4ccc(F)cc4)CC3)c2c1	-16%	-10%
COc1ccc(S(=O)(=O)NC(C)C(=O)Nc2ccccc2)cc1Cl (stereo not given)	-14%	i
O=C(NCc1ccccc1)C1Cc2ccccc2CN1C(=O)c1ccco1 (stereo not given)	-3%	i
CCN(CC)CCCNC(=O)CCn1nc(-c2ccc(Cl)cc2)ccc1=O	-13%	i
CCOC(=O)n1c(O)c(N=NC(N)=S)c2cc(C)ccc21	-4%[7.34 µM]	i[7.34 µM]
O=C(CN(C(=O)CCC(=O)Nc1ccccn1)c1cccc(F)c1)NCc1ccco1	-6%	i
CCc1ccc(NC(=O)c2sc3nc(C)nc(N4CCN(c5ccccn5)CC4)c3c2C)cc1	0%	-3%

Next section, overlapping the part above by three compounds.
SMILES	VACV Venus inh	Vaccinia mCherry
CCOC(=O)n1c(O)c(N=NC(N)=S)c2cc(C)ccc21	-4%[7.34 µM]	i[7.34 µM]
O=C(CN(C(=O)CCC(=O)Nc1ccccn1)c1cccc(F)c1)NCc1ccco1	-6%	i
CCc1ccc(NC(=O)c2sc3nc(C)nc(N4CCN(c5ccccn5)CC4)c3c2C)cc1	0%	-3%
COc1ccc(Cc2n[nH]c(=S)n2-c2cc(C)ccc2C)cc1OC	-4%	31%[activator]
COC(=O)c1c(NC(=O)CN2C(=O)c3ccccc3C2=O)sc(Cc2ccc3c(c2)OCO3)c1C	-5%	-2%
Cc1[nH]n(-c2ccccc2)c(=O)c1N=Nc1cccc([N+](=O)[O-])c1	-16%	i
Cc1cccc(C(C)C)c1NC(=O)C(C)OC(=O)Cc1n[nH]c(=O)c2ccccc12 (stereo not given)	-11%	-21%
C=CCOn1c(=O)c(-c2ccc(OCC)cc2)[n+]([O-])c2ccccc21	-8%	-10%
Cc1nnsc1C(=O)N/N=C/c1ccccc1	9%	-7%
COc1ccc(CCC(=O)NC2CC(=O)N(c3ccccc3)C2)cc1 (stereo not given)	-11%[7.34 µM]	-2%[7.34 µM]
CC(C)(C)OC(=O)N1CCC(c2c(C(=O)NCc3cccs3)cnn2-c2cccc(F)c2)CC1	-22%	-10%
CCOc1ccc(NC(=O)CN(C)C2=NS(=O)(=O)c3ccccc32)cc1	-2%	-17%
O=C(N/N=C/c1ccc(O)cc1)/C(=C/c1ccccc1)CCO	-10%	-16%
CCOC(=O)N1CCN(C(=O)C2CC(c3ccccc3OC)=NO2)CC1 (stereo not given)	-14%	-14%
Cc1ccc(C2c3[nH]c4ccccc4c3CCN2C(=O)c2ccc(N(C)C)cc2)cc1 (stereo not given)	-10%	-18%
COc1cc(-c2cc(C)c3cccc(OC)c3n2)cc2c1OCCN(C(=O)CCn1ccc(C)n1)C2	-9%	-29%
Cc1cn2c(=O)cc(COC(=O)c3ccc(NC(=O)COc4ccccc4F)cc3)nc2s1	-4%	i
Cn1c(=O)c2c(nc(SCC(=O)N3CCOCC3)n2C)n(C)c1=O	-4%	-3%
Cc1cc(C)cc(N2CCN(C(=O)N3CCOCC3)CC2)c1	0%	-8%
OCCN1CN=C(Nc2nc3ccccc3o2)NC1	-12%	i
CCC[n+]1cn(/C(C(=S)Nc2cccc(Cl)c2C)=C(/[O-])c2ccc(OC)c(OC)c2)c2ccccc21	-13%	i
COc1ccc(N2C(=NC(C)=O)SC3CS(=O)(=O)CC32)cc1OC (stereo not given)	-19%	/
Oc1ccccc1-c1cc(C(F)(F)C(F)F)[nH]n1	-20%	-13%
Fc1ccccc1CSc1nncn1NC/C=C/c1ccccc1	-16%	/
Nc1ccc(N2CCCCC2)c(Cl)c1	12%	?
COc1cc(CC(=O)N(C)CC(=O)Nc2ccc(Cl)c(C(F)(F)F)c2)cc(OC)c1OC	-8%	-3%
Cc1ccc(Nc2nc(CSc3nnc(-c4ccccc4C)n3C)cs2)cc1	-22%	-6%
CCc1cc2c(=O)n(Cc3ccco3)c(SCC(=O)N(C)C3CCS(=O)(=O)C3)nc2s1 (stereo not given)	5%	3%
CCOc1ccc2c(c1)OC(c1ccccc1)(C(F)(F)F)NC2=O (stereo not given)	-8%	-22%
COc1ccc(N2Cc3cccc(C(=O)Nc4ccc(C(C)C)cc4)c3C2=O)cc1	-19%	-15%
Cc1cccc(OCC(=O)N(Cc2ccco2)C2CCS(=O)(=O)C2)c1C (stereo not given)	-2%	i
CCc1ccc(C(=O)NNC(=O)CC2OC(=O)c3ccccc32)cc1 (stereo not given)	1%	-13%

Single entries from the list:
Vaccinia mCherry result of COc1ccc(N2Cc3cccc(C(=O)Nc4ccc(C(C)C)cc4)c3C2=O)cc1 → -15%
Vaccinia mCherry result of CCOc1ccc2c(c1)OC(c1ccccc1)(C(F)(F)F)NC2=O (stereo not given) → -22%
VACV Venus inh result of Cc1cccc(OCC(=O)N(Cc2ccco2)C2CCS(=O)(=O)C2)c1C (stereo not given) → -2%
VACV Venus inh result of COc1cc(CC(=O)N(C)CC(=O)Nc2ccc(Cl)c(C(F)(F)F)c2)cc(OC)c1OC → -8%
VACV Venus inh result of Nc1ccc(N2CCCCC2)c(Cl)c1 → 12%
